Screening results: PubChem, National Center for Advancing Translational Sciences (NCATS)
LASV entry inh – Lassa virus entry inhibition; Lassa virus pseudotype entry inhibition, cell reporter; control for the full effect not named in the record; Potency, µM (highest dose often 37.9 µM), inactives show at the highest dose activity change, negative = inhibition, actives largely listed as inhibitors; 300,000 tested, 1.2% active; AID 540256; active means well fitted inhibition curve with a large enough effect; inconclusive means small, poorly fitted or top-dose-only effect, or effect the other way; inactive means flat fitted curve, though single readings scatter; tested in HEK293 cells; also: % is scaled to controls: 0 for no effect and ±100 for the full control effect; nearly all actives have a fitted effect of over 50% in size; luciferase read-out
RE007 growth inh – less growth of the S. pombe RE007 Vpr strain. Potency, µM (series often up to 92.2 µM), without a hit: top-dose activity change, negative = less growth. AID 651644. 360,000 tested, 0.21% active. S. pombe RE007 Vpr strain, BacTiter-Glo ATP luminescence, 24 h; control for the full effect not named in the record; active = well fitted falling curve with a large enough effect; inconclusive = small, poorly fitted or top-dose-only effect; inactive = no such curve, though single readings can be large or run the other way;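 also: % is scaled to controls: 0 for no effect and ±100 for the full control effect; nearly all actives have a fitted effect of over 50% in size; the assay follows cell death caused by Vpr and the record does not say whether a fall means rescue or toxicity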
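Fission yeast RE007 carrying one integrated HIV-1 vpr copy, seeded at OD 0.01 in PMG+AL medium with 23 nL pinned compound. Grown 24 h at 30 degrees; viability read by BacTiter-Glo luminescence after 5 min.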
NS1 inh – inhibitors of influenza NS1 protein function; 270,000 tested, 0.4% active; Potency, µM (doses to about 46.1 µM), inactives show top-dose activity, positive = more growth; S. cerevisiae slowed by influenza A NS1, growth recovery by OD600; also: actives are rising curves; nearly all actives have a fitted effect of over 50% in size
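Read-out: OD600 growth recovery of NS1-expressing budding yeast. Cells grown overnight at 30C in -URA glucose medium, washed, resuspended and diluted 1:100 in 2% galactose assay medium, pH 6.0. Same strain lacking NS1 served as positive control.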
SARS PLpro yeast – blocks SARS-CoV papain-like protease in a yeast assay. S. cerevisiae expressing SARS-CoV PLpro, growth rescue; control for the full effect not named in the record. Potency, µM (highest dose often 32.9 µM), inactives show top-dose activity, positive = growth rescue. 330,000 tested, 0.19% active. AID 485353; also: 0% is about no effect; nearly all actives have a fitted effect of over 55% in size; growth read by luminescence after 48 h
Marburg entry inh – blocks Marburg virus binding to or entry into cells | Marburg virus pseudotyped entry inhibition, cell reporter; control for the full effect not named in the record; about a third of the inactives were read at about 46 µM | Potency, µM (series often up to 37.8 µM), for inactives: top-dose activity change, negative = inhibition, usual class: inhibitors | 300,000 tested, 1.8% active | AID 540276; active = well fitted inhibition curve with a large enough effect; inconclusive = small, poorly fitted or top-dose-only effect, or effect the other way; inactive = flat fitted curve, though single readings scatter; tested in HEK293 cells; about a fifth of its hits are not listed in these tables; also: % is scaled to controls: 0 for no effect and ±100 for the full control effect; luciferase read-out
StopGo reporter – FMDV 2A StopGo reporter, luciferase signal | Potency, µM (titrated, usually from 57.9 µM), for the others: at the highest dose signal change, negative = less light | 410,000 tested, 1.2% active | AID 1159524 | human cells with a luciferase reporter of 2A StopGo recoding; control for the full effect not named in the record; active = well fitted falling curve with a large enough effect; inconclusive = small, poorly fitted or top-dose-only effect; inactive = no such curve, though single readings can be large or run the other way; tested in HEK293T cells; also: % is scaled to controls: 0 for no effect and ±100 for the full control effect; nearly all actives have a fitted effect of over 45% in size; luciferase light after 4 h
Cruzain Triton – inhibitors of Trypanosoma cruzi cruzain with detergent; 200,000 tested, 0.43% active; P25779; Potency, µM, without a hit: max response, negative = inhibition, actives largely listed as inhibitors; purified cruzain, Z-FR-AMC fluorescence, 0.01% Triton; active = well fitted curve in the direction sought with a large enough effect; inconclusive = small, poorly fitted or top-dose-only effect, or another doubt; inactive = no such curve, though single readings can be large; an effect the other way counts as inactive or inconclusive;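 also: plate controls were neutral wells for no effect and buffer without enzyme for full effect; nearly all actives have a fitted effect of over 40% in size; top concentration of the series not given in the record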
Target sequence (P25779 123-467 limits assumed): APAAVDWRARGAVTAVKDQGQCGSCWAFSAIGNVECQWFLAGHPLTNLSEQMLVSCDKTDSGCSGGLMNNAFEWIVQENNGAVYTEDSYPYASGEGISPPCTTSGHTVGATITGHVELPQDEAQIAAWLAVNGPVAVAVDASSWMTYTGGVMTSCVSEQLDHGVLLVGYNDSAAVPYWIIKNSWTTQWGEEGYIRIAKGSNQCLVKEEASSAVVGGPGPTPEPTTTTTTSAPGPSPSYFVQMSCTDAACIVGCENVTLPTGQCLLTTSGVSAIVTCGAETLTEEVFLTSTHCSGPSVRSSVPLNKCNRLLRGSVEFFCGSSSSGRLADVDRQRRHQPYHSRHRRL
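Cruzain (1.5 nM) preincubated 15 min at RT with compound in 100 mM sodium acetate pH 5.5, 5 mM DTT, 0.01% Triton X-100. Reaction started with 2 uM Z-FR-AMC; AMC fluorescence (ex 360/em 450 nm) change over 60 s gave rate.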
Cruzain inh noDet – blocks cruzain activity in detergent-free assay; purified cruzain, Z-FR-AMC fluorescence, no detergent; 200,000 tested, 2.3% active; Potency, µM, for the others: max response, negative = inhibition, most hits filed as inhibitors; AID 1476; active = well fitted curve in the direction sought with a large enough effect; inconclusive = small, poorly fitted or top-dose-only effect, or another doubt; inactive = no such curve, though single readings can be large; an effect the other way counts as inactive or inconclusive;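 also: plate controls were enzyme without inhibitor for no effect and buffer without enzyme for full effect; nearly all actives have a fitted effect of over 40% in size; top concentration of the series not given in the record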
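Purified cruzain at 1.5 nM, pre-incubated 15 min with compound at room temperature in 100 mM sodium acetate pH 5.5, 5 mM DTT, 0.00005% Triton X-100. Reaction started with 2 uM Z-FR-AMC; AMC fluorescence increase over 60 s gives rate.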
Active calls of the source: *; ? = inconclusive; / = no result given; & = joins results of further samples; [ ] = remark or other dose. Unless noted, calls follow the shape of the dose curve; as a rule, active means well fitted rising curve with a large enough effect; inconclusive means small, poorly fitted or top-dose-only effect; inactive means no such curve, though single readings can be large or run the other way. Potency is read from the fitted curve at half-maximal effect.

SMILES | LASV entry inh | RE007 growth inh | NS1 inh | SARS PLpro yeast | Marburg entry inh | StopGo reporter | Cruzain Triton | Cruzain inh noDet
COC(=O)C1CN(C(=O)C(C)Oc2ccccc2F)c2ccccc2O1 (stereo not given) | / | 24% | 3% | -4% | / | -7% | / | /
Cc1cc(C)cc(C(=O)Nc2cc3c4c(c2)CC(=O)N4CCC3)c1 | 0% | 4% | / | 5% | -2% | -12% | / | /
Cc1ccccc1N1C(=O)c2sc3nc4c(c(=O)n3c2C1=O)CCC4 | -27% | 3% | -81% | 0% | 4% | -28% | -11% | -17%
O=C(CCC1COc2ccccc2O1)NCc1ccco1 (stereo not given) | 8% | 0% | 2% | 2% | 5% | -29% | -2.0% | -11%
COc1ccc(-c2nn3c(=O)cc(CN4CCN(C(=O)c5ccc(OC)c(OC)c5)CC4)nc3s2)cc1 | -2%[46.1 µM] | / | / | / | / | -9% | 2.3% | -11%
Cc1ccc(S(=O)(=O)N2CCN(C(=S)NCC3CCCO3)CC2)cc1 (stereo not given) | -2% | 6% | / | 4% | -17% | 6% | / | /
COc1ccc2[nH]cc(C(O)CN3CCN(c4ccccc4F)CC3)c2c1 (stereo not given) | ? | -7% | -3% | -1% | -5%[14.2 µM] | -29% | / | /
COc1ccc(S(=O)(=O)N2CC3C4C=CC(C4)C3C2)cc1 (stereo not given) | ? | 13% | 8% | 2% | 2% | / | -2.4% | -3%
Cc1c(NC(=O)C(C)OC(=O)c2sc3ccccc3c2Cl)c(=O)n(-c2ccccc2)n1C (stereo not given) | 4% | -8% | 8% | 14% | 6% | 0% | -4.1% | 1%
COc1ccc(S(=O)(=O)N2CCCC(C(=O)NCCC3=CCCCC3)C2)cc1 (stereo not given) | -10% | -6% | -1% | -2% | ? | -21% | -3.6% | -29%
CCCOC(=O)c1ccc(OCC(O)CN2C(=O)NC(C)(C)C2=O)cc1 (stereo not given) | -17% | 2% | ? | 2% | ? | 4% | -2.6% | -7%
CCC1(C)Cc2nc3[nH]c(=S)n(-c4ccc(C)cc4)c(=O)c3cc2CO1 (stereo not given) | 1% | 1% | -1% | 10% | 8% | -7% | 0.7% | 20µM*
C=CCN1C(=O)C(C)NC1=S (stereo not given) | 14% | -11% | 5% | 4% | 0%[46.1 µM] | -10% | / | /
O=C(NCc1ccccc1Cl)C1CCN(S(=O)(=O)c2ccc(F)cc2)CC1 | ? | 6% | -3% | 0% | ? | -19% | / | /
CCCCn1c(O)c(C(C)=NCCc2ccccc2)c(=O)[nH]c1=O | -27% | 15% | -92% | -4% | -5% | -9% | -3.3% | 16%
Cc1ccc(CNC(=O)CCCc2ccccc2)cc1 | / | 28% | -4% | -1% | 11%[46.1 µM] | 21% | / | /
CC(C)n1c(NCCO)nc2ccccc21 | -21% | 2% | -3% | 0% | 1%[46.1 µM] | -6% | / | /
CC(C)COc1ccc(C2(C#N)CC[N+](C)(C)CC2)cc1 | -9% | -4% | -6% | -9% | 18% | -6% | 8.7% | -1%
CCOc1ccc(NC(=O)CSc2ncn[nH]2)c([N+](=O)[O-])c1 | -2% | -13% | -1% | -3% | ? | -9% | -2.5% | -1%
Cc1ccc(C(=O)c2ccc([N+](=O)[O-])cc2)cc1C | -3% | 4% | -5% | 14% | -25% | / | -1.6% | -5%
Cc1cccc(CSC(=N)N)c1 | -26% | -2% | -1% | 17% | ? | 0% | -0.5% | 2%
COC(=O)CSc1ncnc2c1sc1nc(-c3ccco3)c3c(c12)CC(C)(C)OC3 | / | / | 16% | -1% | / | / | -15% | -12%
CCOc1ccc(S(=O)(=O)NCCC(=O)NC(C)CCc2ccccc2)cc1 (stereo not given) | -18% | 6% | / | -13% | 4% | -22% | / | /
Cc1cccc(S(=O)(=O)Nc2ccc(C)c3c2OC(C)(C)C3)c1 | -3% | -2% | -7% | -37% | -23%[46.1 µM] | -4% | -5.0% | -5%
NC(=O)c1ccc(Nc2ccc([N+](=O)[O-])cc2[N+](=O)[O-])cc1 | ? | 0% | 3% | 0% | -8% | -7% | / | /
COc1cccc(C(=O)N2CCN(C(=O)C3CCCO3)CC2)c1 (stereo not given) | 5% | 11% | / | -4% | 10% | -13% | / | /
CNCCc1nc(N)n[nH]1 | -13% | 37% | 11% | -5% | 17%&17% | 17% | -1.4% | -7%
O=C(C1CCCCN1S(=O)(=O)c1ccccc1[N+](=O)[O-])N1CCCCC1 (stereo not given) | / | -14% | -1% | 0% | / | -2% | / | /
O=C(OCC1CCC=CO1)C1CCC=CO1 (stereo not given) | 6% | 9% | / | / | 6% | -10% | / | /
O=C(CCCn1c(=O)c2sccc2n(Cc2cccc(Cl)c2)c1=O)NCc1ccc2c(c1)OCO2 | ? | / | / | / | ? | 21% | -4.4% | 0%
O=C(NCC1CCCO1)C(C(=O)c1ccc(F)cc1)n1ccccc1=O (stereo not given) | 3% | -1% | 1% | 11% | 13% | -17% | 1.4% | -12%
O=C(CCn1nnc2ccccc21)Nc1nnc(Cc2ccc(F)cc2)s1 | 3% | -5% | 6% | -2% | 5% | -7% | 1.0% | 12%
Cc1cc(-c2ccccc2)[nH]c(=O)c1C#N | 20% | 5% | / | 3% | 2%[46.1 µM] | 4% | / | /
COc1cc2c(C(=O)N(C)c3cccc(C(F)(F)F)c3)cn(CC(C)C)c(=O)c2cc1OC | 13%[46.1 µM] | / | / | / | ? | -3% | -3.7% | ?
COCCCNC(=O)c1ccc2c(=O)n(C3CCCC3)c(=S)[nH]c2c1 | -2% | -3% | -1% | 1% | -17% | -14% | 1.6% | -3%
CC1CC(C)CN(CCCNC(=O)CCNC(=O)Cn2ccc3ccccc3c2=O)C1 (stereo not given) | 1% | -8% | 5% | -6% | -5% | -14% | 3.9% | 4%
CSCCC(NC(=O)c1ccccc1Br)C(=O)NCc1ccc(F)cc1 (stereo not given) | / | 6% | -2% | 2% | / | -11% | / | /
C[C@H](NC(=O)[C@H](Cc1ccccc1)NC(=O)c1cc2cc(Cl)ccc2n1C)C(=O)O | 5%[46.1 µM] | -3% | 4% | 1% | 8%[46.1 µM] | 20% | / | /
Cc1noc(C)c1COc1cccc(C(=O)OCC(=O)N2CC(=O)Nc3ccccc32)c1 | ? | -9% | -7% | 16% | ? | -11% | 2.1% | -1%
CCOc1ccc2c(c1)OC(c1ccc(OC)cc1)(C(F)(F)F)NC2=O (stereo not given) | -28% | 2% | 2% | 5% | ? | 23% | -11% | -12%
COC(=O)CNC(=O)CSc1ccccn1 | / | 3% | 6% | 0% | / | -10% | / | /
O=C(O)CSc1cccc2cccc(C(=O)O)c12 | / | 28% | 0% | 0% | / | -5% | -3.3% | 12%
O=C(CNC(=O)c1ccccc1)N/N=C/c1ccccc1Cl | 10% | 1% | / | -1% | 28%[46.1 µM] | -4% | / | /
O=C(O)c1ccc(NC2(C(=O)O)CCCC2)cc1 | ? | 5% | / | / | 19% | -9% | / | /
CC1(C)Cc2c(C#N)c(N3CCN(C(=O)c4ccccc4)CC3)nc(-c3ccco3)c2CS1 | -25% | -9% | 8.9µM* | 0% | -16%&-16%[46.1 µM] | -9% | 28µM* | 25µM*
Cn1c(=O)c2[nH]c(C3CC=CCC3)nc2n(C)c1=O (stereo not given) | 17% | 23% | / | / | 6% | -10% | / | /
CC1=CCC(C(=O)O)(C(=O)N/N=C/c2cccs2)C(c2ccc(Cl)cc2)C1 (stereo not given) | 15% | -12% | 17% | -1% | -8% | 3% | -10% | 15%
O=S(=O)(Nc1ccccc1)c1ccc(-c2cnc(C3CC3)o2)cc1 | / | 3% | -40% | -10% | / | 13% | / | /
O=C(NCCc1ccccc1)c1cc2sccc2n1Cc1ccccc1 | 19% | -1% | 5% | 2% | 6%[46.1 µM] | -7% | 0.7% | -9%
COc1cc(=O)[nH]c(SC(C)C(=O)Nc2cccc3ccccc23)n1 (stereo not given) | 10% | 31% | 7% | -3% | 15%[46.1 µM] | -17% | / | /

The list continues.
SMILES | LASV entry inh | RE007 growth inh | NS1 inh | SARS PLpro yeast | Marburg entry inh | StopGo reporter | Cruzain Triton | Cruzain inh noDet
O=C(Nc1nc(-c2ccccn2)cs1)C12CC3CC(CC(O)(C3)C1)C2 | ? | -3% | -3% | 4% | ? | 4% | / | /
Cc1ccc(N2CC(C)Cn3c2nc2c3c(=O)n(Cc3cccc(Cl)c3)c(=O)n2C)cc1 (stereo not given) | -2%[46.1 µM] | / | / | / | -22%[46.1 µM] | ? | -2.7% | -1%
O=C1CN=C(c2cccc(Br)c2)c2cc(Br)ccc2N1 | ? | 2% | 0% | -1% | 7.9µM* | -30% | / | /
O=C(O)c1cccc2nc3ccccc3nc12 | / | ? | -49% | -7% | / | -8% | / | /
CC(=O)Nc1ccc(NC(=O)CNC(=O)c2sc3ccccc3c2Cl)cc1 | -1% | 1% | / | -2% | ? | 6% | / | /
CN(C)S(=O)(=O)c1ccc(C(=O)NCCSc2c(-c3ccc(Br)cc3)[nH]c3ccccc23)cc1 | ? | / | / | / | ? | ? | 0.5% | 25µM*
Cc1nc(SCC(=O)Nc2cc(C)on2)c2c(C)c(C)sc2n1 | ? | 13% | 8% | 1% | 0% | / | -1.4% | -4%
O=C(/C=C/c1cccc(F)c1)NNC(=O)c1ccncc1 | 1% | 2% | / | 10% | -27% | -5% | / | /
Cc1ccccc1OCC(=O)NCC(c1ccco1)N1CCCCC1 (stereo not given) | -34%[46.1 µM] | -8% | 11% | -1% | ? | -19% | / | /
FC(F)(F)c1cccc(NC(=S)Nc2cccc(Cl)c2)c1 | ? | -15% | -79% | -12% | -15% | -22% | -6.2% | -12%
COc1cc2c(cc1OC)CN(CCOc1ccc(Br)cc1)CC2 | / | -14% | -4% | 1% | / | -18% | / | /
COc1ccc(Cl)cc1S(=O)(=O)n1c([N+](=O)[O-])cnc1C | / | -8% | -6% | -1% | / | 10% | / | /
CC1CCCC(NC(=O)c2nn(C)c3c2CS(=O)(=O)c2ccccc2-3)C1C (stereo not given) | / | 15% | 10% | -2% | / | -18% | / | /
